# p53 nuclei: p53 stabilisation in HPV-positive human cells, imaging, p53-positive nuclei imaging, 24 h, 48 h (AID 1508601). p53-positive nuclei imaging, 48 h; hits give high values; some inactives read as strong as hits. p53-positive nuclei, normalised, % at 11 µM unless noted. actives 1% (n = 5,700);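 active = mean of two plates above 50% at 24 h or at 48 h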;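 note: HPV-positive HeLa cells with a fluorescent p53 stability reporter; 0% = vehicle and 100% = proteasome inhibitor control; doses worked out from stocks diluted about 900-fold with the highest of each compound shown; many of its hits are not listed in these tables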
# p53 nuclei cells 24 h: also measured in p53 nuclei; calls as there; nuclei count, normalised, %; measured here: cell number at 24 h;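 100% = vehicle wells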
# p53 nuclei p53 24 h: second read-out of p53 nuclei, no call of its own (marks repeat the call); p53-positive nuclei, normalised, %; measured here: p53 positive nuclei at 24 h;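 0% = vehicle and 100% = positive control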
# p53 nuclei cells 48 h: recorded beside p53 nuclei, whose call it bears; nuclei count, normalised, %; measured here: cell number at 48 h;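 100% = vehicle wells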
# Numbers without * were called inactive; [ ] = another dose, or the depositor's remark.
No.	compound	p53 nuclei	p53 nuclei cells 24 h	p53 nuclei p53 24 h	p53 nuclei cells 48 h
1	COc1cc2ncnc(Oc3cccc(NC(=O)Nc4cc(C(C)(C)C(F)(F)F)on4)c3)c2cc1OC	-0.2[3.7 µM]	98	-0.3	94
2	Nc1ncnc2nc[nH]c12	0.0[3.7 µM]	120	-0.4	114
3	CC(NCc1ccc(OCc2ccccc2F)cc1)C(N)=O (stereo not drawn)	0.1	106	-0.2	102
4	COc1cc2c(cc1OC)CN(C(=O)C(NCc1ccncc1)C(C)(C)C)CC2 (stereo not drawn)	0.1	100	-0.1	97
5	CCn1cc(C(=O)O)c(=O)c2cc(F)c(N3CCNCC3)nc21	0.0[3.7 µM]	107	-0.1	112
6	CCOc1ccc(-n2c(C(C)N(Cc3cccnc3)C(=O)Cc3ccc(F)c(C(F)(F)F)c3)nc3ncccc3c2=O)cc1 (stereo not drawn)	0.4	105	0.0	99
7	Oc1cc2c(cc1O)[C@@H]1c3ccc(O)c(O)c3OC[C@]1(O)C2	-0.1[3.7 µM]	104	-0.2	103
8	CC(=O)Nc1ncc([N+](=O)[O-])s1	-0.1[3.7 µM]	113	-0.2	103
9	COC(=O)c1ccc2c(C(=Nc3ccc(N(C)C(=O)CN4CCN(C)CC4)cc3)c3ccccc3)c(O)[nH]c2c1	0.0	77	0.3	65
10	Cc1ccc(Nc2cc(-c3cccc(N4C(=O)c5ccccc5C4=O)c3)ncn2)cc1NS(C)(=O)=O	0.1	97	0.1	104
11	COc1cc(NC(=O)c2ccc(-c3ccc(Cl)cc3)o2)cc(OC)c1	-0.2	113	-0.1	109
12	CN(C)CC(=O)Nc1ccc2[nH]c(=O)c3ccccc3c2c1	0.2	94	0.1	95
13	COc1cc(N2CCOCC2)ccc1Nc1ncc(F)c(Nc2ccccc2NS(C)(=O)=O)n1	0.0	103	0.1	74
14	CC1(C)O[C@H]2CC(=O)OC[C@]23[C@H]2CC[C@@]4(C)C(c5ccoc5)OC(=O)C5O[C@]54[C@@]2(C)C(=O)C[C@@H]13 (stereo partly drawn)	-0.2[3.7 µM]	101	-0.3	101
15	COc1cccc(OC)c1-c1ccc(CC(NC(=O)c2c(Cl)cccc2Cl)C(=O)O)cc1 (stereo not drawn)	0.1	112	0.1	108
16	COc1c(O)cc2c(c1O)[C@@H]1OC(CO)C(O)C(O)[C@H]1OC2=O (stereo partly drawn)	0.0[3.7 µM]	106	-0.1	107
17	Cc1cc(C(C)Nc2ccccc2C(=O)O)c2nc(N3CCOCC3)cc(=O)n2c1 (stereo not drawn)	-0.2	107	-0.1	99
18	Cc1cccc(Nc2cc(Cl)nc(SCC(=O)O)n2)c1C	0.0[3.7 µM]	114	-0.3	103
19	c1ccc(Cn2c(-c3ccc(OCC(C4CCNCC4)n4c(-c5ccccc5)nc5ccccc54)cc3)nc3ccccc32)cc1 (stereo not drawn)	-0.1[3.7 µM]	111	-0.3	108
20	CN(C)C(CCOc1cccc2ccccc12)c1ccccc1 (stereo not drawn)	-0.1[3.7 µM]	112	-0.1	107
21	CCc1c2c(nc3ccc(OC(=O)N4CCC(N5CCCCC5)CC4)cc13)-c1cc3c(c(=O)n1C2)COC(=O)[C@]3(O)CC	-0.3[3.7 µM]	64	-0.4	60
22	CN(C)CC1CCn2cc(c3ccccc32)C2=C(C(=O)NC2=O)c2cn(c3ccccc23)CCO1 (stereo not drawn)	26	81	46	89
23	CCc1nc(-c2cccc(C)c2)c(-c2ccnc(NC(=O)c3ccccc3)c2)s1	-0.1	86	0.0	79
24	Cn1c(=O)n(-c2ccc(C(C)(C)C#N)cc2)c2c3cc(-c4cnc5ccccc5c4)ccc3ncc21	-0.1	74	0.0	75

# Some of the entries so far, with values under each structure.
# Under each structure – p53 nuclei	p53 nuclei cells 24 h	p53 nuclei p53 24 h	p53 nuclei cells 48 h
(3) CC(NCc1ccc(OCc2ccccc2F)cc1)C(N)=O (stereo not drawn)
    0.1	106	-0.2	102
(4) COc1cc2c(cc1OC)CN(C(=O)C(NCc1ccncc1)C(C)(C)C)CC2 (stereo not drawn)
    0.1	100	-0.1	97
(5) CCn1cc(C(=O)O)c(=O)c2cc(F)c(N3CCNCC3)nc21
    0.0[3.7 µM]	107	-0.1	112
(6) CCOc1ccc(-n2c(C(C)N(Cc3cccnc3)C(=O)Cc3ccc(F)c(C(F)(F)F)c3)nc3ncccc3c2=O)cc1 (stereo not drawn)
    0.4	105	0.0	99
(7) Oc1cc2c(cc1O)[C@@H]1c3ccc(O)c(O)c3OC[C@]1(O)C2
    -0.1[3.7 µM]	104	-0.2	103
(8) CC(=O)Nc1ncc([N+](=O)[O-])s1
    -0.1[3.7 µM]	113	-0.2	103
(9) COC(=O)c1ccc2c(C(=Nc3ccc(N(C)C(=O)CN4CCN(C)CC4)cc3)c3ccccc3)c(O)[nH]c2c1
    0.0	77	0.3	65
(10) Cc1ccc(Nc2cc(-c3cccc(N4C(=O)c5ccccc5C4=O)c3)ncn2)cc1NS(C)(=O)=O
    0.1	97	0.1	104
(11) COc1cc(NC(=O)c2ccc(-c3ccc(Cl)cc3)o2)cc(OC)c1
    -0.2	113	-0.1	109
(12) CN(C)CC(=O)Nc1ccc2[nH]c(=O)c3ccccc3c2c1
    0.2	94	0.1	95
(13) COc1cc(N2CCOCC2)ccc1Nc1ncc(F)c(Nc2ccccc2NS(C)(=O)=O)n1
    0.0	103	0.1	74
(14) CC1(C)O[C@H]2CC(=O)OC[C@]23[C@H]2CC[C@@]4(C)C(c5ccoc5)OC(=O)C5O[C@]54[C@@]2(C)C(=O)C[C@@H]13 (stereo partly drawn)
    -0.2[3.7 µM]	101	-0.3	101
(15) COc1cccc(OC)c1-c1ccc(CC(NC(=O)c2c(Cl)cccc2Cl)C(=O)O)cc1 (stereo not drawn)
    0.1	112	0.1	108
(16) COc1c(O)cc2c(c1O)[C@@H]1OC(CO)C(O)C(O)[C@H]1OC2=O (stereo partly drawn)
    0.0[3.7 µM]	106	-0.1	107
(17) Cc1cc(C(C)Nc2ccccc2C(=O)O)c2nc(N3CCOCC3)cc(=O)n2c1 (stereo not drawn)
    -0.2	107	-0.1	99
(18) Cc1cccc(Nc2cc(Cl)nc(SCC(=O)O)n2)c1C
    0.0[3.7 µM]	114	-0.3	103
(19) c1ccc(Cn2c(-c3ccc(OCC(C4CCNCC4)n4c(-c5ccccc5)nc5ccccc54)cc3)nc3ccccc32)cc1 (stereo not drawn)
    -0.1[3.7 µM]	111	-0.3	108
(20) CN(C)C(CCOc1cccc2ccccc12)c1ccccc1 (stereo not drawn)
    -0.1[3.7 µM]	112	-0.1	107
(21) CCc1c2c(nc3ccc(OC(=O)N4CCC(N5CCCCC5)CC4)cc13)-c1cc3c(c(=O)n1C2)COC(=O)[C@]3(O)CC
    -0.3[3.7 µM]	64	-0.4	60

# Later entries:
No.	compound	p53 nuclei	p53 nuclei cells 24 h	p53 nuclei p53 24 h	p53 nuclei cells 48 h
25	c1cncc(CN2CCC(n3ncc4c(N5CCOCC5)nc(-c5ccc6[nH]ccc6c5)nc43)CC2)c1	-0.3[3.7 µM]	97	-0.3	102
26	CNC(=O)c1ccccc1Nc1nc(Nc2ccc(N3CCOCC3)cc2OC)ncc1Cl	0.2	42	-0.2	27
27	C=CC1=C(C(=O)O)N2C(=O)[C@H](NC(=O)C(=NO)c3csc(N)n3)[C@H]2SC1	3.0[3.7 µM]	99	-0.2	99
28	COc1cc(Nc2ncc3c(n2)-c2ccc(Cl)cc2C(c2c(F)cccc2OC)=NC3)ccc1C(=O)O	1.1	47	0.1	25
29	CCc1cncnc1N1CCN(Cc2nc3ccc(C(F)(F)F)cc3[nH]2)CC1	-0.1	99	-0.1	98
30	CNC1C(O)C(NC)[C@H]2O[C@@]3(O)C(=O)CC(C)O[C@H]3O[C@@H]2C1O (stereo partly drawn)	-0.2[3.7 µM]	104	-0.4	108
31	COc1ccc(CN2CCN(C(c3ccc(F)cc3)c3ccc(F)cc3)CC2)c(OC)c1OC	-0.2[3.7 µM]	108	-0.3	103
32	NC(N)=NC(=O)Cc1c(Cl)cccc1Cl	-0.2	102	-0.1	103
33	Cc1ccc(NC(=O)Nc2cc(C(F)(F)F)ccc2F)cc1Nc1ccc2c(c1)NC(=O)C2=Cc1ccc[nH]1	0.0	93	0.0	99
34	CN(C)C(=O)c1ccc(S(=O)(=O)c2ccc(NC(=O)C(C)(O)C(F)(F)F)c(Cl)c2)cc1 (stereo not drawn)	-0.1[3.7 µM]	110	-0.3	104
35	COC(c1ccccc1)(c1ccccc1)C(Oc1nc(C)cc(C)n1)C(=O)O (stereo not drawn)	-0.1[3.7 µM]	96	-0.2	103
36	O=C(O)C1(Cc2cccc(Nc3nccs3)n2)CCC(Oc2cccc(Cl)c2F)CC1 (stereo not drawn)	3.2[3.7 µM]	40	0.1	34
37	CCCC(=O)O[C@@]1(C(=O)COC(C)=O)CC[C@H]2[C@@H]3CC(F)C4=CC(=O)C=C[C@]4(C)[C@]3(F)C(O)C[C@@]21C (stereo partly drawn)	-0.2[3.7 µM]	104	-0.3	100
38	Cc1ccc(C(=O)N(CCCN)C(c2oc3cc(Cl)ccc3c(=O)c2Cc2ccccc2)C(C)C)cc1 (stereo not drawn)	0.2[3.7 µM]	46	2.4	49
39	O=C(O)Cn1nnc(-c2cc(N3CCC(Oc4cc(F)ccc4Br)CC3)no2)n1	-0.7[3.7 µM]	117	-0.3	111
40	Cc1cc(Nc2nc(NC(C)c3ncc(F)cn3)ncc2Cl)n[nH]1 (stereo not drawn)	0.0	52	0.0	35
41	Cc1ccc(-c2ccc3c(ccc4sc5c(c43)NCC(C)NC5=O)n2)cn1 (stereo not drawn)	0.0	105	-0.1	92
42	CNc1nc(Nc2cn(C(C)(C)C#N)nc2C)ncc1C(F)(F)F	0.0[3.7 µM]	116	-0.3	111
43	COc1ccc(NS(=O)(=O)c2sc3ccc(Cl)cc3c2C)cc1N1CCNCC1	-0.2[3.7 µM]	117	-0.5	117
44	COc1cccc(-c2cn(-c3ccc(CCN4CCC(O)CC4)cc3)c3ncnc(N)c23)c1	-0.1	76	0.0	70
45	COC(=O)N1CCN(Cc2cccc(NC(=O)Nc3ccc(C)nc3)c2F)CC1	-0.2[3.7 µM]	100	-0.3	97
46	Cc1noc(-c2ccc(-c3ccc(CC(=O)O)cc3)cc2)c1NC(=O)OC(C)c1ccccc1 (stereo not drawn)	0.0	103	0.1	104
47	N#Cc1ccc2[nH]cc(CCCCN3CCN(c4ccc5oc(C(N)=O)cc5c4)CC3)c2c1	-0.2	85	0.0	89
48	COc1ccccc1OCCNCC(O)COc1cccc2[nH]c3ccccc3c12 (stereo not drawn)	-0.1	123	-0.1	107
49	O=C(O)c1ccc2c(c1)nc(Nc1cccc(Cl)c1)c1ccncc12	0.0	85	0.0	85
50	Cc1ccc2nc(NCCN)c3ncc(C)n3c2c1	20	42	10	26
51	Cc1ccc2nc(N)[nH]c(=O)c2c1Sc1ccncc1	0.5	65	0.0	45
52	COc1ccnc2[nH]cc(C(=O)C(=O)N3CCN(C(=O)c4ccccc4)CC3C)c12 (stereo not drawn)	-0.2[3.7 µM]	107	-0.1	105
53	O=C(Nc1ccccc1)Nc1ccc(-c2ccc(C(=O)C3CCCC3C(=O)O)cc2)cc1 (stereo not drawn)	-0.1	108	-0.1	109
54	CCNC(=O)c1noc(-c2cc(Cl)c(O)cc2O)c1-c1ccc(OC)cc1	0.1[3.7 µM]	52	0.1	43
55	Cc1nc(Nc2n[nH]c3c2CN(C(=O)NC(CN(C)C)c2ccccc2)C3(C)C)c2sccc2n1 (stereo not drawn)	1.6	45	0.8	35
56	CCNC(=O)Nc1ccc(-c2nc3c(c(N4CCOCC4C)n2)CCN(C2COC2)C3)cc1 (stereo not drawn)	-0.1[3.7 µM]	91	-0.3	87
57	Cc1cccc(C)c1NC(=O)C1CCCCN1C (stereo not drawn)	0.2[3.7 µM]	110	-0.1	106
58	CN1CCN(C2CCN(C(=O)Nc3cc(Oc4ccc(NC(=O)C5(C(=O)Nc6ccc(F)cc6)CC5)c(F)c4)ccn3)CC2)CC1	-0.4[3.7 µM]	118	-0.5	109
59	CC(C)N(CC1OC(n2cnc3c(N)ncnc32)C(O)C1O)C1CC(CCc2nc3ccc(C(C)(C)C)cc3[nH]2)C1 (stereo not drawn)	0.1	97	-0.1	100
60	NC1(c2ccc(-c3nc4ccn5c(=O)[nH]nc5c4cc3-c3ccccc3)cc2)CCC1	0.3	66	0.3	71
61	CCCCC1C(=O)N(c2ccccc2)N(c2ccccc2)C1=O	-0.2[3.7 µM]	112	-0.5	112
62	CC(C)n1nc(-c2ccc3oc(N)nc3c2)c2c(N)ncnc21	0.1	64	-0.1	50
63	CC(=O)c1c(C)c2cnc(Nc3ccc(N4CCNCC4)cn3)nc2n(C2CCCC2)c1=O	0.0	114	0.0	103
64	Cc1cc2c(cc1CC(=O)c1sccc1S(=O)(=O)Nc1onc(C)c1Cl)OCO2	0.1	97	0.0	101
65	COc1ccc(-c2cnc3c(-c4cccc5ncccc45)cnn3c2)cc1	0.6	96	0.0	86
66	CC(C)Oc1ccc(-c2cnc3c(-c4ccnc5ccccc45)cnn3c2)cc1	-0.2[3.7 µM]	108	-0.3	99

# Screening data: PubChem BioAssay, ICCB-Longwood Screening Facility, Harvard Medical School

# An excerpt, so the mix of outcomes need not match the whole.
